Bioassay records from PubChem.
Rango release inh: qHTS Assay for Inhibitors of RanGTP induced Rango (Ran-regulated importin-beta cargo) - Importin beta complex dissociation. Snurportin-1 (Homo sapiens) + GTP-binding nuclear protein Ran (Homo sapiens) + Importin …. 340,000 tested, 0.071% active. Biochemical FRET Rango-importin beta, RanGTP-induced dissociation. Potency, µM (titrated, usually from 46.1 µM), for the others: at the top dose activity change, negative = inhibition; active means falling FRET ratio curve, often poorly fitted, with flat reads before Ran was added; inconclusive means other falling curves, or compound fluorescence or quenching; inactive means flat or rising ratio curve;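 also: potency is read from the fitted curve at half-maximal effect; % of control where 0% means no effect; nearly all actives have a fitted effect of over 45% in size; -100% = wells without RanGTP and RCC1; the record marks most hits as doubtful in a second field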
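FRET read at 45 min, room temperature: inhibitors block the CFP/YFP signal rise when RanGTP (0.6 uM Ran, 2 mM GTP, 0.2 uM RCC1) frees Rango (0.1 uM) from importin beta (0.25 uM). Pre-read after 5 min compound exposure flags interference.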
GLA inh pH 4.5: qHTS Assay for Inhibitors of Human alpha-Galactosidase at pH 4.5. 230,000 tested, under 10 active. Alpha-galactosidase A (Homo sapiens), P06280. activity change, negative = inhibition, % at 105 µM. purified enzyme, 4-MU-alpha-Gal fluorescence, pH 4.5; inconclusive = small, poorly fitted or top-dose-only inhibition, or a rising curve; inactive = flat fitted curve, though single readings scatter; no compound was filed as active;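 also: 0% = full activity with enzyme and -100% = basal without enzyme; dose as in the result columns while the protocol names 77 µM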
miR-21 FLuc: qHTS Assay for Modulators of miRNAs and/orActivators of miR-21. Potency, µM (series often up to 38.3 µM), without a hit: top-dose reporter change, positive = more light. AID 2288, 2010. HeLa miR-21 FLuc reporter, luciferase, 48 h. 340,000 tested, under 10 active; active = well fitted rising curve with a large enough effect; inconclusive = small, poorly fitted or top-dose-only effect; inactive = no such curve, though single readings can be large or run the other way;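 also: % of control where 0% means no effect; miR-21 action dims this reporter so a rising signal means less miR-21 action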
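HeLa miR-21-FLuc reporter line, endogenous miR-21; 2000 cells/well in DMEM/10% FBS; compound titration up to ~40uM final, 48 h, 37 degree Celsius; luciferase detection reagent, 15 min lysis, CCD luminescence.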
Rango-impB inh: qHTS Assay for Inhibitors of Rango (Ran-regulated importin-beta cargo) - Importin beta complex formation; Importin subunit beta-1 (Homo sapiens), Q14974; Rango CFP/YFP FRET sensor + importin beta, 45 min; Potency, µM (top dose mostly 92.2 µM), for inactives: at the highest dose inhibition of complex formation; 340,000 tested, 0.031% active; AID 540263, 2011; active = rising FRET ratio curve, often small or poorly fitted; inconclusive = mostly compound fluorescence or quenching in the first reads; inactive = flat curves in all reads;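 also: potency is read from the fitted curve at half-maximal effect; 0% = DMSO wells and 100% = buffer wells lacking importin beta; nearly all actives have a fitted effect of over 15% in size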
Target sequence (Q14974 whole entry, looked up): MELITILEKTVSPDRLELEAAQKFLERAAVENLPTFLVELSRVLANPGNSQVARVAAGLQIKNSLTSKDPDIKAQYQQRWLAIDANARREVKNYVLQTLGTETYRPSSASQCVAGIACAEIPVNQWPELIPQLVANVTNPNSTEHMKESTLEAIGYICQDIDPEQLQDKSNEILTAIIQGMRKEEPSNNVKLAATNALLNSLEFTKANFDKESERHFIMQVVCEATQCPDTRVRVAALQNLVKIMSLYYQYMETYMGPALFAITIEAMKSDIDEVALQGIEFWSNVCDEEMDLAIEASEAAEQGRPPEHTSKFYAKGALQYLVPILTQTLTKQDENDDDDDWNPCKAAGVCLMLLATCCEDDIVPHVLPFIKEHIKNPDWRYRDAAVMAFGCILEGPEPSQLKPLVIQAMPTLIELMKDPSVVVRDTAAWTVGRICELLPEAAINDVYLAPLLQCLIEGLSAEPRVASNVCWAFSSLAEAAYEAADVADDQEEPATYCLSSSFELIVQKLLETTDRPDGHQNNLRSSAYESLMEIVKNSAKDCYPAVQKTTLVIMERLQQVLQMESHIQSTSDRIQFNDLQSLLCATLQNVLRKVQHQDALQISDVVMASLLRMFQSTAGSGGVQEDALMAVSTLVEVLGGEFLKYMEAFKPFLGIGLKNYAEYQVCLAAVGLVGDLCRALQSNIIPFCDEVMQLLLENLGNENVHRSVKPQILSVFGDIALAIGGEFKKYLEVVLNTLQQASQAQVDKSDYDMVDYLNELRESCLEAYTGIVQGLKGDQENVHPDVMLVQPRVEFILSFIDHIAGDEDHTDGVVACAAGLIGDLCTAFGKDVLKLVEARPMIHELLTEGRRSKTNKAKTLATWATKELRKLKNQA
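FRET biosensor (snurportin 1 IBB flanked by EYFP and cerulean), 50 nM, with compound 5 min, then 0.125 microM importin beta in PBS, 1 mM DTT, 0.02% Tween-20, 0.1% BSA. CFP/YFP ratio read after 45 min at room temperature; pre-read flags interference.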
* = called active by the depositor; ? = inconclusive; nt = not tested or not shown; & = joins results of further samples.

SMILES	Rango release inh	Rango-impB inh	GLA inh pH 4.5	miR-21 FLuc
CC(C)c1ccc(NC(=O)Nc2cnccn2)cc1	-7%	1.8%	nt	-22%
N#Cc1cc(-c2ccccc2)nnc1Sc1ccc(F)cc1	-9%	2.4%	-11	0%
CN(CC(=O)Nc1ccc(F)c(F)c1F)C(=O)C1CCCCC1	-14%	3.6%	nt	nt
COCCn1nnnc1C(c1cc2cc(C)ccc2[nH]c1=O)N1CCN(C2CCCCC2)CC1 (stereo not given)	-25%	2.7%	4	-1%
O=C(CSc1nnc(-c2cccnc2)n1C1CCCCC1)NC1CCCC1	-22%	-0.3%	10	-7%
NC(=O)[C@@H]1CCNc2c(I)cc([N+](=O)[O-])cc2C(=O)N[C@@H](CO)C(=O)N[C@@H](Cc2ccc(O)cc2)C(=O)N1	nt	nt	9	-4%
CCOc1ccc2nc(NC(=O)CCC(=O)c3cccs3)sc2c1	-15%	?	0	-40%
Cc1cccc(CSc2nnc(Cn3c(=O)sc4ccccc43)n2C)c1	8%	0.6%	-5	-5%
CCC(C)n1c(C)nc2c(c1=O)c1nc3ccccc3nc1n2-c1ccc2c(c1)OCCO2 (stereo not given)	nt	nt	3	-2%
Cc1cccc(NS(=O)(=O)c2ccc3[nH]c(=O)[nH]c3c2)c1C	8%	-1.7%	nt	-4%&-7%
CCc1ccc2nc(NC(=O)C3CCN(c4ncnc5sc(C)c(C)c45)CC3)sc2c1	-3%	-0.3%	nt	nt
C=C(C)c1cccc(C(C)(C)NC(=O)Nc2cc(C)ccn2)c1	-3%	-8.7%	-4	7%
Cc1ccc(C(=O)NC(=S)N2CCCC2)cc1	9%	-1.0%	nt	-20%
COc1cc(CCC(=O)N2CCN(c3cccc(C)c3C)CC2)cc(OC)c1OC	0%	-2.5%	nt	11%
Cc1ccc(C)c(OCCC(=O)OCC(=O)Nc2ccc(N3CCOCC3)cc2)c1	13%	-1.2%	nt	nt
Cc1noc(/C=C/N(C)C)c1S(=O)(=O)N1CCCC(C(=O)NCc2ccccc2Cl)C1 (stereo not given)	?	?	-3	-5%
O=C(COc1ccc(Br)cc1F)NC1CC1	-42%	?	nt	nt
O=C(O)CCCC(=O)N1CCc2cc(S(=O)(=O)N3CCc4ccccc43)ccc21	12%	0.1%	4	-5%
COc1ccc(/C=C/C(=O)N(C)CC(=O)Nc2cccc(F)c2)cc1S(=O)(=O)N1CCCCC1	6%	-1.9%	nt	nt
O=C(CSC(=S)N1CCCCC1)Nc1nc(-c2ccccc2)c(-c2ccccc2)o1	-7%	-2.7%	2	-1%
NC1=NC(=O)/C(=C/c2ccsc2)S1	1%	1.9%	-11	4%
CC(CC(=O)NC1CCCCC1)S(=O)(=O)c1ccc2c(c1)NC(=O)CO2 (stereo not given)	0%	0.0%	nt	0%
Cc1cc(N2CCCc3ccccc32)n2ncnc2n1	28%	2.3%	2	-4%
O=C1CCc2ccccc2N1Cc1ccccc1	16%	-0.7%	nt	-14%
O=C(COC(=O)CSc1ccccc1)Nc1ccc(F)cc1F	1%	-2.0%	nt	nt
Cc1ccc(C)c(S(=O)(=O)c2c(C)cc(C)[nH]c2=O)c1	2%	-3.4%	nt	-1%
COC(=O)c1ccc(C2C(C(=O)Nc3ccccc3C)=C(C)Nc3ncnn32)cc1 (stereo not given)	1%	1.9%	1	-28%
CC1(C)CC(=O)C=C(Nc2ccc(Cl)c(Br)c2)C1	18%	1.1%	nt	8%
Oc1ccc(Cl)cc1CNCc1ccc(F)c(F)c1	24%	1.4%	nt	nt
O=C(CC(=O)c1ccccc1O)c1cccc(F)c1	4%	3.1%	-7	4%
CCCCC1=CC2=CC(=O)C(C)(OC(=O)c3cnc4ccccc4n3)C(=O)C2=CO1 (stereo not given)	nt	nt	-7&-26	3%
O=C(N/N=C/c1c(F)cccc1Cl)C(=O)N1CCCCCC1	23%	0.1%	nt	0%
Cc1csc(C(C#N)C(=O)c2ccncc2)n1 (stereo not given)	4%	1.5%	7	-7%
Cc1ccccc1-c1ccc(C=Nc2c(C)n(C)n(-c3ccccc3)c2=O)o1	34%	-0.2%	-3	-10%
COC(=O)c1ccc(-n2ccnc2)cc1	12%	0.5%	10	1%
CCOc1ccccc1N1CCN(C(=O)c2cc(S(=O)(=O)N(C)C)ccc2N2CCCC2)CC1	16%	9.9%	nt	nt
COc1ccc(C2CC(c3cccs3)=Nc3ccccc3S2)cc1OC (stereo not given)	-1%	-3.1%	-11	-32%
CC(=O)Nc1ccc(S(=O)(=O)Nc2nccc(C3Cc4ccccc4C(=O)O3)n2)cc1 (stereo not given)	5%	6.5%	7	-4%
O=[N+]([O-])c1cc(/C=N/N2CCN(Cc3ccccc3)CC2)ccc1Cl	0%	7.7%	-23	4%
CC(=O)SCC(Cc1ccccc1)C(=O)NCC(=O)OCc1ccccc1 (stereo not given)	nt	nt	0	0%
COc1ccc(Cc2n[nH]c(=S)n2NC(=O)Nc2ccc(C)cc2)cc1	-10%	-4.9%	4	-52%
O=C(OCc1cc2ccccc2[nH]c1=O)c1ccco1	2%	-0.7%	9	0%
Cc1ccc2nc(-c3ccccn3)cc(C(=O)NC(C)C(C)(C)C)c2c1 (stereo not given)	-5%	-2.9%	-4	-3%
CSc1nc(N)nc(SC2C=CCCC2)c1C#N (stereo not given)	9%	-1.9%	-11	-56%
O=C(NCc1ccccc1)c1ccc2c(c1)C(=O)N(Cc1ccncc1)C2=O	-10%	20%	-16	-1%
O/N=C1/CCCCC1c1ccccn1 (stereo not given)	-8%	-0.7%	-7	-1%
COc1cc(C(=O)NC2CCCC2)c(Br)c(OC)c1OC	-6%	0.5%	-3	0%
Cn1c(N)c(C(=O)COC(=O)c2cc(S(=O)(=O)N3CCOCC3)ccc2F)c(=O)n(C)c1=O	-5%	-0.8%	nt	nt
O=C(CCCn1c(=S)[nH]c2ccc(Br)cc2c1=O)NCc1ccccn1	-6%	4.3%	nt	3%
Cc1cc(Cl)ccc1NC(=S)NCCN1CCOCC1	-19%	1.8%	-3	-9%

Only GLA inh pH 4.5, for 2 of the compounds above:
SMILES | GLA inh pH 4.5
COCCn1nnnc1C(c1cc2cc(C)ccc2[nH]c1=O)N1CCN(C2CCCCC2)CC1 (stereo not given) | 4
O=C(CSc1nnc(-c2cccnc2)n1C1CCCCC1)NC1CCCC1 | 10

(further entries)
SMILES	Rango release inh	Rango-impB inh	GLA inh pH 4.5	miR-21 FLuc
CCn1cc(CN2CCN(Cc3ccccc3)C(CCO)C2)c2ccccc21 (stereo not given)	2%	-1.4%	nt	-6%
CC(C)[C@H](NC(=O)c1ccccc1)C(=O)OCC(=O)Nc1ccc(Cl)cc1C(F)(F)F	1%	-3.3%	4	-3%
O=C(NCCCN1CCCC1=O)C1CCN(S(=O)(=O)c2cc(C(F)(F)F)ccc2Cl)CC1	-7%	9.4%	nt	nt
CC(C)Cc1cc(C(=O)NCc2ccco2)no1	1%	0.9%	7	-31%
COC(=O)c1cc(NC(=O)Cc2ccccc2[N+](=O)[O-])ccc1Cl	-15%	0.6%	5	-6%
CCN(CC)P(=O)(Nc1ccc([N+](=O)[O-])cc1)c1c(C)nn(CCC#N)c1NC(=O)c1ccc(Cl)cc1 (stereo not given)	-2%	2.2%	nt	7%
O=C(CSc1ncn[nH]1)N1CCN(S(=O)(=O)c2ccccc2)CC1	-10%	10.0%	-2	-2%
CCOC(=O)C1=C(COC(=O)COc2ccc(C#N)cc2)NC(=O)NC1C (stereo not given)	3%	0.2%	nt	-2%
O=c1c2ccccc2ncn1-c1ccc2c(c1)OCCO2	-1%	0.5%	0	-32%
CN(C)/C=C/C(=O)c1cccc(C(F)(F)F)c1	-8%	?	-3	-4%
O=C(c1ccc(Sc2ccc(F)cc2)c([N+](=O)[O-])c1)N1CCOCC1	0%	-0.3%	?	-2%
COCCNC(=O)CN(C)S(=O)(=O)c1ccc2c(c1)OCCO2	12%	-1.4%	-11	0%
Cc1ccc(C(=O)/C=C/c2cn(CC(O)CN3CCOCC3)c3ccccc23)cc1 (stereo not given)	?	?	-2	-8%
Cc1c(C(=O)NC(C(C)C)C(C)C)cccc1[N+](=O)[O-]	-12%	0.5%	-3	-1%
COCCn1c(SCC(=O)NNC(=O)c2cc(Cl)ccc2OC)nnc1-c1ccncc1	-4%	2.2%	nt	nt
CCn1cc(C(=O)N2CCc3ccccc32)c(=O)c2cc(S(=O)(=O)N3CCOCC3)ccc21	-3%	-2.4%	?	-5%
Cc1cc(NC(=O)CSCCO)no1	12%	-0.5%	9	-4%
CCOC(=O)c1ccc(-c2ccc(CO)o2)cc1	23%	?	-8	-42%
Cc1cccc(N2CCN(C(=O)COc3cccc4c3OC(C)(C)C4)CC2)c1C	16%	-4.1%	12	25%
Cc1ccc(-c2c(C(=O)N/N=C/c3ccc(OC(C)C)cc3)nnn2-c2nonc2N)cc1	-6%	1.3%	nt	-3%
COC(=O)Cn1c(=O)c2c(nc3n2CCCN3CCc2ccc(OC)c(OC)c2)n(C)c1=O	-8%	-2.6%	nt	-1%
S=C(NCCN1CCOCC1)Nc1ccc(Br)cc1	-6%	4.4%	4	-5%
c1ccc2c(c1)ccn2CCCN1CCCCC1	-10%	-0.4%	nt	nt
O=C(Nc1nnc(SCc2ccc(F)cc2)s1)c1ccccn1	9%	0.6%	-2	-8%
CCC(=O)N/C(N)=N/c1nc(C)c2cc(C)c(C)cc2n1	8%	3.4%	2	2%
CC(=O)c1sc(NC(=O)c2c(F)cccc2F)nc1-c1ccccc1	1%	-1.8%	-2	-3%
Cc1cccc(NC(=O)c2nc[nH]c2C(=O)NCc2ccccc2)c1	16%	1.3%	nt	nt
O=C(NC1CCCC1)C1CCN(C(=O)c2ccc(Cl)cc2)CC1	-7%	-1.5%	nt	3%
CNC(=O)COC(=O)c1cccnc1SC	1%	0.0%	6	-3%
CCn1c2ccc(CC(=O)O)cc2c2cc(CC(=O)O)ccc21	-6%	-0.3%	5	-2%
Cc1ccc(S(=O)(=O)n2nc(-c3ccco3)nc2SCc2ccccc2)cc1	13%	0.4%	1	-44%
CC(=O)C1=C(c2ccc(Br)cc2)C(=O)c2ccccc2C1=O	-28%	?	-5	?
CCCCc1cc(=O)oc2c(C)c(OCC(=O)N3C[C@H]4C[C@@H](C3)c3cccc(=O)n3C4)ccc12	-3%	-0.1%	nt	-15%
O=C(c1ccccc1)n1nc(-c2ccccc2)nc1NCc1ccco1	15%	-4.5%	3	-44%
CCc1ccc2c(CN3CCN(S(=O)(=O)c4ccccc4F)CC3)cc(=O)oc2c1	-5%	-1.3%	nt	nt
COc1ccc(C#Cc2c(C=O)n(C)c3ccccc23)cc1	?	?	nt	nt
O=C(CN1CCCCC1)Nc1ccc(S(=O)(=O)NC2CCCCC2)cc1	-11%	1.9%	-4	3%
COc1cccc(CC(CC(=O)O)C(=O)Nc2cc(C)ccc2C)c1 (stereo not given)	-9%	4.1%	nt	0%
CN(C)C(=O)c1ccc(NC(=O)COc2ccc([N+](=O)[O-])cc2)cc1	-2%	-3.9%	1	-2%
Cc1nn(CCO)c2ncc(C(=O)c3cc(F)ccc3O)cc12	-10%	-1.4%	nt	-5%
Cc1c(C(=O)N2CCCCC2CCN2CCCC2=O)oc2c(F)cccc12 (stereo not given)	4%	2.1%	nt	-9%
CCCCNC(=O)c1sc2ncnc(N3CCc4ccccc4C3)c2c1C	2%	2.6%	-8	2%

A portion of the library (hit frequency here may not be typical).
